Screening results: PubChem, National Center for Advancing Translational Sciences (NCATS)
VACV Venus inh – qHTS for Stage-Specific Inhibitors of Vaccinia Orthopoxvirus: Venus Reporter Primary qHTS | 330,000 compounds, 0.46% hits | Potency, µM (titrated, usually from 36.5 µM), for the others: top-dose activity change, negative = inhibition, hits mostly inhibitors | Vaccinia virus Venus reporter expression, fluorescence; active means well fitted inhibition curve with a large enough effect; inconclusive means small, poorly fitted or top-dose-only effect; inactive means no such curve, though single readings can be large or run the other way; tested in A549 cells; also: nearly all actives have a fitted effect of over 30% in size; inactives centre near -10
VACV mCherry inh – qHTS for Stage-Specific Inhibitors of Vaccinia Orthopoxvirus: mCherry Reporter Primary qHTS; Vaccinia virus mCherry reporter infection, fluorescence; about a quarter of the inactives have no number; Potency, µM (top dose mostly 36.5 µM), for the others: top-dose activity change, negative = inhibition, usual class: inhibitors; 310,000 compounds, 0.63% hits; AID 720579, 2013; active = well fitted inhibition curve with a large enough effect; inconclusive = small, poorly fitted or top-dose-only effect; inactive = no such curve, though single readings can be large or run the other way; tested in A549 cells; also: nearly all actives have a fitted effect of over 35% in size; inactives centre near -10
An asterisk follows results filed as active; i = inactive; ? = inconclusive; . = not tested or not shown; [ ] = dose if it differs, or a comment. % is scaled to controls: 0 for no effect and ±100 for the full control effect; potency is read from the fitted curve at half-maximal effect.

SMILES | VACV Venus inh | VACV mCherry inh
O=Cc1ccc(N2CCOCC2)cc1 | -17% | -15%
COc1ccc(NC(=O)CSc2nncn3c2cc2oc(C)cc23)cc1OC | -1% | -11%
CCOC(=O)N1CCN(Cc2nc(CC3CC3)no2)CC1 | -9% | -9%
CN(c1ccc(C(=O)NCCSCc2ccco2)cc1)S(C)(=O)=O | -5% | .
Cc1c(C(=O)NCCc2ccccc2)oc2ccccc12 | 5% | 2%
COC(=O)CCN1CCc2cc(N=Nc3ccc([N+](=O)[O-])cc3)ccc21 | -9% | -7%
O=C(O)c1cccc2cccc(-c3c4ccc(=O)c(O)c-4oc4c(O)c(O)ccc34)c12 | -13% | i
CCc1ccc(NC(=O)CCNC(=O)N2C[C@H]3C[C@@H](C2)c2cccc(=O)n2C3)cc1 | 5% | -1%
O=C1C=C(c2cccs2)CC(c2cccs2)C1n1cnc([N+](=O)[O-])c1 (stereo not drawn) | -17% | .
Oc1ccc(C=NNC(=S)Nc2ccc(F)cc2)c(O)c1 | ? | ?
CCc1nc2c(OCc3cccc(Cl)c3)cccn2c1N(C)C(=O)c1ccncc1 | 4% | 50%[activator]
O=C(NCC1CCCO1)/C(=C\c1cccs1)NC(=O)c1ccccc1 (stereo not drawn) | -5% | 4%
CC(=O)c1c(C)cc(C)c(CSc2nc(C)cc(=O)[nH]2)c1C | -4% | -30%
CCN1C(=O)[C@@H]2[C@@H](c3ccc(-c4ccc(F)cc4)cc3)N3CCCC[C@@]3(C(=O)OC)[C@@H]2C1=O | -24% | -13%
COc1ccc(N=C2CCCN2CC(N)=O)cc1 | 1% | -15%
CCOc1ccc(CCNC(=O)Cc2ccc(NC3=NC4CS(=O)(=O)CC4S3)cc2)cc1OCC (stereo not drawn) | 8%[7.34 µM] | -2%[7.34 µM]
OC(c1ccccc1)c1ncc(-c2cccc(OCc3ccccc3)c2)[nH]1 (stereo not drawn) | ? | ?
COc1cc(CNCCCN2CCOCC2)c(Br)cc1OC(C)C | -11% | -11%
C/C(=N\NC(N)=S)c1cccnc1 | -23% | i
O=C(Nc1cccc2ccccc12)N1CCN(c2ccc(F)cc2)CC1 | 18% | .

Three structures from above, sorted by count of non-hydrogen atoms, falling:
SMILES | VACV Venus inh | VACV mCherry inh
CCc1nc2c(OCc3cccc(Cl)c3)cccn2c1N(C)C(=O)c1ccncc1 | 4% | 50%[activator]
COc1cc(CNCCCN2CCOCC2)c(Br)cc1OC(C)C | -11% | -11%
CC(=O)c1c(C)cc(C)c(CSc2nc(C)cc(=O)[nH]2)c1C | -4% | -30%

(cont.)
SMILES | VACV Venus inh | VACV mCherry inh
CN(C)CCCn1c(NCc2ccc3c(c2)OCO3)nc2ccccc21 | -11% | i
Cc1ccc(CNC(=O)CCc2c(C)nc3nc(CNC(=O)OC(C)(C)C)nn3c2C)cc1 | -15% | -11%
Cc1ccc2cc(/C=N/NC(=O)c3ccc(F)cc3)c(Cl)nc2c1 | 1% | -14%
COC(=O)C1=C(C)N(Cc2ccc(OC)c(OC)c2)C(=O)C1 | -12% | -15%
N#CCSc1nc2ccccc2c(=O)n1CCCC(=O)NCc1ccco1 | -23% | -21%
COc1ccc(S(=O)(=O)NC(=O)C2(C)CCN2C(=O)C(C)(C)c2ccccc2)cc1 (stereo not drawn) | -4% | 31%[activator]
CCOC(=O)C(=O)C1C(=O)Nc2ccccc21 (stereo not drawn) | -11% | -12%
O=C1c2ccccc2C(Nc2ccc(F)cc2F)N1CCN1CCOCC1 (stereo not drawn) | -1% | -13%
O=[N+]([O-])c1cccc(C2Nc3cccc4cccc(c34)N2)c1 | -2% | -15%
CC(=O)OC1CC[C@@]2(C)C(CCC3C2CC(=O)[C@@]2(C)C3CC3CC(C)=CC(=O)C32)C1 (stereo partly drawn) | -23% | i
COc1ccc(Cn2c(CNS(=O)(=O)c3ccc(C)c(C)c3)nc3cccnc32)cc1 | -12% | -10%
CN(C)c1ccc(CNC(=O)CN2C(=O)CSc3ccc(S(=O)(=O)N4CCCC4)cc32)cc1 | -5% | 3%
O=C(NC(=S)N1CCCCC1c1cccnc1)c1ccccc1 (stereo not drawn) | 4% | 11%
CCOC(=O)c1ccc(COC(=O)CNC(=O)CNC(=O)c2ccc(OC)cc2)o1 | -11% | .
CCN(CC)C(=O)C1=C(C)N(CCC2=CCCCC2)C(=O)C(CC(=O)NC2CCCC2)C1 (stereo not drawn) | -7% | -26%
CCc1c(C)nc2c(-c3ccccc3)c(C)[nH]n2c1=O | -21% | ?
Cc1ccc(NC(=O)CSc2nnc(-c3cc(C)on3)o2)cc1 | -2% | -8%
Cc1ccc(C)c(Nc2nn3c(=O)c4ccc(C(=O)NCCc5ccccc5)cc4nc3s2)c1 | ? | ?
CCOc1ccc(-n2nc3ccc(NC(=O)c4ccc5c(c4)OCCO5)cc3n2)cc1 | -12% | -13%
C=CCC(C(=O)OC)(C(=O)OC)c1ccccc1[N+](=O)[O-] | -2% | i

The closing 6 records of the part above open the next one.
SMILES | VACV Venus inh | VACV mCherry inh
CCN(CC)C(=O)C1=C(C)N(CCC2=CCCCC2)C(=O)C(CC(=O)NC2CCCC2)C1 (stereo not drawn) | -7% | -26%
CCc1c(C)nc2c(-c3ccccc3)c(C)[nH]n2c1=O | -21% | ?
Cc1ccc(NC(=O)CSc2nnc(-c3cc(C)on3)o2)cc1 | -2% | -8%
Cc1ccc(C)c(Nc2nn3c(=O)c4ccc(C(=O)NCCc5ccccc5)cc4nc3s2)c1 | ? | ?
CCOc1ccc(-n2nc3ccc(NC(=O)c4ccc5c(c4)OCCO5)cc3n2)cc1 | -12% | -13%
C=CCC(C(=O)OC)(C(=O)OC)c1ccccc1[N+](=O)[O-] | -2% | i
COc1ccc(C)cc1NC(=O)C1CCN(S(=O)(=O)c2ccc3[nH]c(=O)oc3c2)CC1 | -7% | 2%
Cc1ccc(NC(=O)CC2S/C(=N/N=C3/NC(=O)CS3)NC2=O)cc1 (stereo not drawn) | -12% | -3%
CC(C)C[C@H]1CN=C(Nc2ccccc2)N1CCCC1CCCC1 | -27% | -28%
C[C@@H](C(=O)Nc1ccc2c(c1)OCCO2)n1nnc2ccccc2c1=O | -9% | i
CCCCn1c(N)c(N(CC(C)C)C(=O)c2cc(C)nc3ccccc23)c(=O)[nH]c1=O | -12% | -11%
CC(C)(C)OC(=O)C[C@@H]1C/C=C\C[C@@H](CC(=O)N[C@H](CO)Cc2ccccc2)C(=O)N2CCC[C@H]2COC1=O | -9% | 5%
Cc1ccc2c(c1)C(c1ccccc1)=NCC(=O)N2 | -8% | -3%
Cc1cc2nc(-c3ccccc3)c(Cc3cccc(Cl)c3)n2c(C)c1Br | -1% | 21%
CCOc1ccc(C(=O)Nc2ccc3c(c2)N(C(C)=O)CCC3)cc1OCC | -7% | -15%
O=S(=O)(NC1=NCCCCC1)c1ccc(F)cc1 | 0% | -22%
CCN(CC)S(=O)(=O)c1ccc(OC(C)C)c(NC(=O)C2=COCCO2)c1 | -21% | -17%
Cc1c(N=C/C=C/c2ccccc2)cnn1C | -7% | .
C=CCSC1=NNC(c2ccc(C(C)(C)C)cc2)=NN1 | -20% | -24%
O=C(O)C1CCC(=O)N1Cc1ccc(F)cc1 (stereo not drawn) | 5% | -4%
COCC(=O)N1CCC2CC1c1c(-c3ccc(C(F)(F)F)cc3)cccc12 (stereo not drawn) | -23% | i
CCOc1ccccc1NC(=O)C(NCCN(C)C)c1ccccc1 (stereo not drawn) | -9% | i
Cc1ccc(-c2nn(C)c(=O)c3ccccc23)cc1CNC(=O)/C=C/c1ccccc1 | -17% | -14%
Cn1c(SCC#N)nnc1-c1ccc2c(c1)OCO2 | -7% | -13%
COc1cc(S(=O)(=O)NCc2ccccc2)ccc1F | -17% | .
Cc1ccc(-c2nn(-c3ccccc3)cc2C(N)=O)o1 | -8% | i
Cc1ccc(NC(=O)CSc2nc(=O)n(Cc3ccncc3)c3c2CCC3)cc1Cl | -25% | -26%
COc1ccc(OC)c(NC(=O)CSc2nnnn2-c2ccccc2F)c1 | -22% | .
COc1ccc(CCNC(=O)c2cc3c(=O)n4cccc(C)c4nc3n(Cc3ccco3)c2=N)cc1OC | -8% | i
COc1ccc(C(c2nnnn2C(C)(C)C)N2CCN(c3nc4ccccc4s3)CC2)cc1 (stereo not drawn) | -1% | .
O=C(COC(=O)CCC(=O)c1cccs1)Nc1ncc(Cl)cc1Cl | -12% | -10%
CSc1ncc(CN2CCN(CC=C(C)C)C(CCO)C2)cn1 (stereo not drawn) | -12% | i
Cc1ccc(-c2nn(Cc3ccccc3)cc2C(=O)NCC2CCCO2)cc1 (stereo not drawn) | -14% | -11%
CCCCc1nnc2c(N(C)S(=O)(=O)c3ccccc3)nc3ccccc3n12 | -11% | -9%
Cc1c(C(=O)N2CC3(CC(c4cccc(NC(=O)[C@H]5CCC(=O)N5)c4)=NO3)C[C@@H]2C(N)=O)cc([N+](=O)[O-])cc1[N+](=O)[O-] (stereo partly drawn) | -12% | -13%
O=C(c1cc2cc(Cl)ccc2o1)N1CCCC1 | -19% | -13%
Cc1cc(NC(=O)NCc2ccco2)ccc1NC(=O)NCc1ccco1 | 4% | -18%
CC(C)CCc1noc(CN(C)CCC2CCOCC2)n1 | -17% | -3%
CC1=C[C@H](C)[C@H](c2c(F)cccc2Cl)CC1=O | -15% | -36%
CC(C)N1C(=O)CCC1C(=O)O (stereo not drawn) | 2% | 3%
COc1ccc(N2CCN(Cc3nnnn3C3CCCCC3)CC2)cc1 | -13% | -4%
CC(C)NC1CCC(Nc2ccnc3cc(Cl)ccc23)CC1 (stereo not drawn) | -21% | -7%
CC(O)Cc1cn([C@@H](CCCCNC(=O)OC(C)(C)C)C(=O)N2CCN(C(=O)OC(C)(C)C)CC2)nn1 (stereo partly drawn) | -7% | i
CCc1cccc(C)c1NC(=O)CCCn1c(=O)c2cccn2c2cccnc21 | -7%[7.34 µM] | -11%[7.34 µM]
Cc1cc(C)c(Cn2cnc(-c3ccc([N+](=O)[O-])cc3)c2)c(C)c1 | 0% | i
CCOc1ccc(NCc2nc3ccccc3n2CCOc2ccccc2)cc1 | ? | -26%
Cc1ccc(C(=O)O)cc1NC(=O)CN1C(=O)C2C3c4ccccc4C(Br)(c4ccccc43)C2C1=O (stereo not drawn) | -15% | i
COc1cccc(CC(=O)OCC(=O)NC(Cc2ccccc2)C(C)=O)c1 (stereo not drawn) | -4% | -6%
CSc1n[nH]c2nc3c(c(=O)n12)C1(CCCCC1)Cc1ccccc1-3 | -15% | i
Clc1nssc1=Nc1nncs1 | -8% | i
Cc1ccc(C2=NN(CC(=O)NCc3ccccn3)C(=O)CC2)cc1 | -13% | -1%
O=C(C[C@H]1C/C=C\C[C@H](Cc2ccc(F)cc2)C(=O)O[C@@H](c2ccccc2)CNC1=O)N[C@@H](CO)Cc1ccccc1 | -29% | i
CC(NC(=O)c1ccco1)C(c1cccs1)N1CCN(c2ccc(F)cc2)CC1 (stereo not drawn) | -17% | -8%
O=C(C1CCCO1)N1CCN(S(=O)(=O)c2ccccc2)CC1 (stereo not drawn) | -17% | i
C=CCN(CC=C)C(=O)COC(=O)c1n[nH]c2ccccc12 | -8% | -3%
O=c1nc(-c2ccccc2)c2cc(Cl)ccc2[nH]1 | -16% | -17%
Next results
SMILES | VACV Venus inh | VACV mCherry inh
CCCCc1cc(=O)oc2cc(OCC(=O)N3CCc4ccccc43)ccc12 | -5% | -9%
O=C(c1ccccc1)C(O)(CN1CCCCC1)c1ccccc1 (stereo not drawn) | 0% | -9%
CCc1c(C)nc2nncn2c1NCc1ccc(Cl)cc1 | ? | -9%
CC(=O)N1CCCc2ccc(NC(=O)c3ccc(C(F)(F)F)cc3)cc21 | -16% | -9%
O=C(Nc1cc(Cl)ccc1-n1cncn1)C1CC1 | -14% | -7%
Cn1c2ccccc2c2c(C(=O)N3CCN(c4cccc(Cl)c4)CC3)cn(C3CCCCC3)c(=O)c21 | -18% | -18%
Cc1ccc(CNC(=O)CCn2cnc3ccccc3c2=O)cc1 | -7% | -13%
CCC(C(=O)Nc1cc(C)ccc1C)n1c(=O)c(C(F)(F)F)nc2ccccc21 (stereo not drawn) | -7% | -3%
Nc1[nH]c(C(=O)c2ccccc2)c(-c2ccc(F)cc2)c1C(=O)NCCc1c[nH]c2ccccc12 | -14% | -22%
CC(C)NC(=O)N(C)C[C@@H]1OCc2cnnn2CCCC(=O)N([C@H](C)CO)C[C@@H]1C | -1% | i
COc1ccc(/C=C2\SC(=S)N(CCC(=O)Nc3ccccn3)C2=O)cc1OC | -1% | -11%
CSc1cccc(NC(=O)CN(C2CCCCC2)S(C)(=O)=O)c1 | -8% | -11%
COc1ccc(C=C(NC(=O)c2ccccc2)C(=O)O)cc1OC | -9% | i
Cc1cc(C)c2c(c1)/C(=N/NC(=O)c1cc(C)oc1C)CCC2 | -4% | -29%
COc1cc(OC)cc(C(=O)NC(=S)NNC(=O)Cc2cccs2)c1 | -12% | -5%
COc1cccc(C#CC2=CC(=O)CC(C)(C)C2)c1 | -15% | ?
Cc1cc(S(=O)(=O)Nc2ccc(C(=O)O)cc2)c(C)c(S(=O)(=O)c2ccc(Cl)cc2)c1 | 7% | -5%
Cc1cc(C(=O)N2CCN(c3cccc(Cl)c3)CC2)c2c(C)nn(-c3ccccc3Cl)c2n1 | -5% | -12%
CCn1c(O)c(C2=c3ccccc3=NC2=O)c2cc(Br)ccc21 | -6% | -5%
CCc1ccc(NC(=O)[C@H](NC(=O)[C@@H]2Cc3ccccc3CN2)c2ccccc2)cc1 | 0%[7.34 µM] | -3%[7.34 µM]
CCn1cc(C(=O)O)c(=O)c2cc(Br)ccc21 | -28% | -8%
